Bioassay records deposited in PubChem BioAssay by National Center for Advancing Translational Sciences (NCATS).
FEN1 inhibitor: blocks human flap endonuclease 1; P39748; Recombinant FEN1 flap cleavage, fluorescence, 15 min; Potency, µM (doses to about 114 µM), for inactives: at the top dose activity change, negative = inhibition, hits mostly inhibitors; 390,000 tested, 0.35% active; AID 588795; further: nearly all actives have a fitted effect of over 65% in size
Target sequence (P39748 whole entry, looked up): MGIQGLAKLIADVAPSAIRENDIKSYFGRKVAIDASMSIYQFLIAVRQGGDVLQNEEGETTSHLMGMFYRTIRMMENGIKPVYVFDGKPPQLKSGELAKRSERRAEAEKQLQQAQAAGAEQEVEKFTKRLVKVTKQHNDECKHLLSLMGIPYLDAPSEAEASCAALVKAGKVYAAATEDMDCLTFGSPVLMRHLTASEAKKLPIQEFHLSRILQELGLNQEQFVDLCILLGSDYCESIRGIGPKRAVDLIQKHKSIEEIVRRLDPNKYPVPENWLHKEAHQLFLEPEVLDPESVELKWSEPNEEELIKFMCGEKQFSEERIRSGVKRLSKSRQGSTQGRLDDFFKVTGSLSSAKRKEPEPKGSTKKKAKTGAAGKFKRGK
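Read-out was taken twice, immediately and after 15 min, following addition of 50 nM substrate to 10 nM FEN1 that had sat with test compound for 15 min at room temperature. Curves came from a four-parameter Hill model.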
N370S GC mod: N370S glucocerebrosidase modulation, Gaucher chaperone candidate | P04062 | N370S GC spleen homogenate, 4MU-glucoside fluorescence | Potency, µM (highest dose often 59.4 µM), for the others: at the top dose activity change, negative = inhibition, usual class: inhibitors | 330,000 tested, 0.092% active | AID 2101;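 further: 0% = full enzyme activity and -100% = no enzyme basal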
* = called active by the depositor; u = inconclusive; x = not tested or not shown; & = joins results of further samples; [ ] = remark or other dose. The call rests on the fitted dose curve; in most records, active means well fitted curve in the direction sought with a large enough effect; inconclusive means small, poorly fitted or top-dose-only effect, or another doubt; inactive means no such curve, though single readings can be large; an effect the other way counts as inactive or inconclusive. Unless noted, on the % scale 0 is the no-effect control and ±100 the full control effect; potency means the concentration at half of the fitted maximal effect. Not all compounds are listed, and most or all hits are left out here.

FEN1 inhibitor,N370S GC mod,compound
-18%,x,CCOc1ccc(NC(=O)c2c(NCc3ccc(C)o3)sc3c2CCCCC3)cc1
5%,-13%,Nc1cc(=O)[nH]c(SCC(=O)N2CCN(S(=O)(=O)c3ccc4ccccc4c3)CC2)n1
-7%,4%,C=CCO/N=C(/C)c1ccc(Oc2cnccn2)cc1
3%,1%,O=C1CCCCC(=O)N(c2ccccc2)c2ccccc21
12%,23%,Clc1ccc(OCc2cc(-c3ccccc3)no2)c(Cl)c1
-1%,1%,CN(CC(=O)Nc1cccc(F)c1)C(=O)C1=COCCO1
-3%&2%,x,C=C[C@@H]1c2ccccc2N(S(=O)(=O)c2ccc(C)cc2)[C@H](c2ccccc2C(F)(F)F)C1(C#N)C#N
5%,0%,C=CCNS(=O)(=O)CC12CCC(CC1=O)C2(C)C (centres undefined)
8%,-20%,COc1cc(SC)ccc1C(=O)NCCCn1ccnc1
-8%,2%,COc1ccccc1CCNS(=O)(=O)c1cn(C)nc1C
44%[activator],u,CN(C)S(=O)(=O)c1cccc(-c2nnc(SCCNCCO)n2-c2ccc(F)cc2)c1
-6%,-2%,O=C(Nc1cccc(O)c1)c1ccc(NC(=O)c2cccs2)cc1
3%,-3%,O=C(CCN1CCN(c2ccccc2)CC1)NNC(=O)Cc1ccc(Br)cc1
-6%,-3%,CCN(CC)c1ccc(C(=O)OCC(=O)Nc2cc3oc4ccccc4c3cc2OC)cc1
-2%,x,Cc1ccc(-c2csc3ncn(CC(=O)NCC(c4ccco4)N4CCCC4)c(=O)c23)cc1 (centres undefined)
-8%,-8%,C/C=C/c1ccc(OCC(=O)N(C)CC(=O)Nc2ccc(F)cc2)c(OC)c1
0%,-3%,CN(NS(C)(=O)=O)c1c(C#N)c(C(F)(F)F)nn1C
-6%,1%,CCOc1cccc(C(=O)Nc2cc(-c3nn4c(C)nnc4s3)ccc2C)c1
2%,7%,Cc1ccc(C(=O)NCc2nnc(SCC(=O)NC(C)c3ccccc3)n2C)cc1 (centres undefined)
x,-3%,O=C(Oc1cccc2cccnc12)c1ccccc1

Complete entries, quoted from the list. Order of screens: FEN1 inhibitor, N370S GC mod
C/C=C/c1ccc(OCC(=O)N(C)CC(=O)Nc2ccc(F)cc2)c(OC)c1 across the screens: -8%, -8%
CCOc1ccc(NC(=O)c2c(NCc3ccc(C)o3)sc3c2CCCCC3)cc1 across the screens: -18%, x
O=C(CCN1CCN(c2ccccc2)CC1)NNC(=O)Cc1ccc(Br)cc1 across the screens: 3%, -3%
O=C(Oc1cccc2cccnc12)c1ccccc1 across the screens: x, -3%
CN(CC(=O)Nc1cccc(F)c1)C(=O)C1=COCCO1 across the screens: -1%, 1%

2 compounds drawn at random from the list so far:
FEN1 inhibitor,N370S GC mod,compound
-6%,1%,CCOc1cccc(C(=O)Nc2cc(-c3nn4c(C)nnc4s3)ccc2C)c1
3%,1%,O=C1CCCCC(=O)N(c2ccccc2)c2ccccc21

(listing goes on)
FEN1 inhibitor,N370S GC mod,compound
1%,-15%,COc1ccc(C(=O)O)cc1S(=O)(=O)Nc1cccc(C(F)(F)F)c1
0%,4%,O=C(NC1CCCc2c1cnn2-c1ccc(F)cc1F)c1ccccn1 (centres undefined)
0%,-7%,CC(=O)Nc1cccc(-c2nnc(-c3ccccc3)o2)c1
0%,0%,O=C1NC2(CCc3ccccc32)C(=O)N1CCOc1ccc(Cl)cc1 (centres undefined)
-3%,-5%,Cc1cc(-c2csc(NC(=O)c3ccccc3C(F)(F)F)n2)c(C)n1Cc1ccccc1
1%,-2%,Cc1ccnn1CC(=O)N/N=C/c1cccs1
x,-9%,CC(C)(O)[C@@H]1CCC[N+]2(C)CCCC[C@H]12 (some centres undefined)
7%,13%,O=S(=O)(Cc1ccc(Cl)cc1)N1CCN(Cc2ccccc2)CC1
-1%,28%,COc1ccc(/C=C/c2ccccc2)cc1[C@H]1[C@@H]2C=CCC[C@@]2(C)C(=O)N1Cc1ccccc1
12%,u,C/C(=N\NC(=O)c1cc(-c2ccc(Cl)s2)[nH]n1)c1ccncc1
0%,2%,CCC(C)NC(=O)C1CC(c2cccc(OC)c2)=NO1 (centres undefined)
2%,14%,Cc1nc(-c2ccc(S(=O)(=O)N3CCCN(CCc4ccccc4)CC3)s2)cs1
4%,0%,CC(=O)c1sc(NC(=O)c2cccc(N3C(=O)CCC3=O)c2)nc1-c1ccccc1
-1%,4%,CCn1c(=O)c(=O)n(CC)c2cc(N3CCCCC3)c(NC(=O)c3ccc(Cl)cc3)cc21
24%,x,CC(OC(=O)c1ccc(NC(=O)CC#N)cc1)C(=O)NCCC1=CCCCC1 (centres undefined)
-18%,u,C(#CCN1CCC(Cc2ccccc2)CC1)COCCOCc1ccccc1
-14%,-22%,Cc1ccsc1/C=C(\CC(=O)O)c1nc2ccccc2o1
22%,18%,CCn1nc(C)cc1C(=O)N1CCCC(CCC(=O)NCc2ccccc2F)C1 (centres undefined)
-12%,-15%,CC1(C)CC2CC(C)(CN2/C=N/c2sc3c(c2C#N)CC(C)(C)NC3(C)C)C1 (centres undefined)
6%,8%,Cn1c(=O)c2ccccc2n(Cc2ccccc2F)c1=O

The results go on.
FEN1 inhibitor,N370S GC mod,compound
49%[activator],-2%,CC(=O)Nc1ccc(S(=O)(=O)NCC(=O)OCc2ccccc2)cc1
19%,-1%,Cc1ccc(SCC(=O)OCC(=O)NCCC2=CCCCC2)cc1
1%,23%,COC(=O)c1ccccc1NC(=O)C1CC(=O)N(c2ccccc2)C1 (centres undefined)
-10%,x,COc1ccc([C@H]2CC(=O)C=C(c3ccccc3OC)C2)cc1OC
u,-10%,COc1ccc(C(c2c(C)[nH]n(-c3ccccc3)c2=O)c2c(C)[nH]n(-c3ccccc3)c2=O)cc1OC
x,0%,CC(C)N(Cc1nnc(-c2ccccc2Cl)o1)C(=O)c1cccc(C#N)c1
-7%,-7%,O=C(CCCCl)Nc1c2c(nn1-c1ccccc1)CSC2
-19%,-1%,CCOC(=O)c1ccc2[nH]c3c(c2c1)CN(C)CC3
11%,12%,OC1(c2ccccc2)CCN(Cc2ccccc2)C2CCCCC21 (centres undefined)
17%,-9%,CCCCn1c(N)c(N(CC(C)C)C(=O)c2cccc(S(=O)(=O)N3CCCCC3)c2)c(=O)[nH]c1=O
-8%,4%,CC1(C)Cc2c(cnn2-c2cccc(F)c2)C(NC(=O)CCc2cnccn2)C1 (centres undefined)
-20%,-7%,CC(OC(=O)c1ccc(NC(=O)CC#N)cc1)C(=O)Nc1nc(-c2ccccc2)cs1 (centres undefined)
0%,-1%,Cc1[nH]c(=O)c(C#N)c(C)c1CCC(=O)Nc1cc(S(C)(=O)=O)ccc1Cl
-3%,19%,C=CCSc1nc(N)c2c(C)c(C)sc2n1
-12%,-2%,CC(C)NC(=O)Cn1c(=O)c2c(ncn2Cc2ccccc2)n(Cc2ccccc2)c1=O
-18%,x,CC(=O)N1CCc2c(sc3c2c(=O)n(-c2ccccc2C)c(=O)n3Cc2cccc(F)c2)C1
-2%,11%,CCOc1ncccc1C(=O)Nc1ccc(F)c(F)c1
-16%,1%,COc1ccc(-c2ccc(=O)n(Cc3ccc([N+](=O)[O-])cc3)n2)cc1
-2%,2%,CS(=O)(=O)N(Cc1ccccc1)c1ccc(C(=O)NCC2CCCO2)cc1 (centres undefined)
-3%,17%,S=C(Nc1ccccc1)N1CCCCCC1

The results go on.
FEN1 inhibitor,N370S GC mod,compound
2%,-2%,CCc1c(C)nn(C(=O)/C(C#N)=C\N(C)C)c1C
-9%,9%,N#CCCN1CCN(S(=O)(=O)c2ccc(S(=O)(=O)NC3CCCC3)cc2)CC1
6%,3%,O=C(OCC(=O)N1CCOCC1)c1ccc2c(c1)OCCO2
-2%,0%,O=C(CNC(=S)NC(=O)C1CCCCC1)c1ccccc1
0%,3%,COCCNC(=O)CC(NS(=O)(=O)c1ccc(NC(C)=O)cc1)C(C)C (centres undefined)
7%,x,Cc1ccc2oc3c(c(=O)c2c1)C(c1ccc(OCC(N)=O)cc1)N(Cc1ccc2c(c1)OCO2)C3=O (centres undefined)
4%,x,COc1ccc(Cn2c(=O)c3oc4ccccc4c3n(Cc3ccc(F)cc3)c2=O)cc1
9%,x,O=C(COc1cc(F)ccc1[N+](=O)[O-])N1N=C(c2cccs2)CC1c1ccco1 (centres undefined)
3%,u,Cc1cc(NC(=O)COc2ccccc2)n(-c2ccccc2)n1
3%,-11%,Cc1nc(NC(C)(C)CO)c([N+](=O)[O-])cc1[N+](=O)[O-]
-4%,1%,CC(C)(C)NC(=O)COc1ccc(-c2ccccc2)cc1
-14%,-20%,Cn1c(/N=C/c2cccs2)nc2ccccc21
4%,x,CC(C)(C)OC(=O)C[C@H]1C/C=C\C[C@@H](CC(=O)N[C@H](CO)Cc2ccccc2)C(=O)N2CCC[C@H]2COC1=O
4%&15%,2%&12%,Cc1ncsc1CCOC(=O)c1cccc([N+](=O)[O-])c1
-29%,x,C=CCOc1ccc(C2c3c(oc4ccc(C)cc4c3=O)C(=O)N2CCCN2CCOCC2)cc1 (centres undefined)
-6%,7%,Cc1ccc(C(=O)CSc2nnnn2C(C)C)c(C)c1
14%,x,COc1ccc(NC(=O)N(C)C[C@H]2Oc3c(NS(=O)(=O)c4ccc(OC)cc4)cccc3C(=O)N([C@H](C)CO)C[C@@H]2C)cc1
-1%,-5%,O=S(=O)(/C=C/c1ccccc1)Nc1cccc(S(=O)(=O)NC2=NCCC2)c1
24%,-13%,Cc1ccc(C)c(NC(=O)Cn2nnc(-c3ccc(N4CCOCC4)cc3)n2)c1
-5%,10%,Cc1ccc(NC(=O)CSc2nc3[nH]ncc3c(=O)[nH]2)cc1

As entered above.
FEN1 inhibitor, `CCc1c(C)nn(C(=O)/C(C#N)=C\N(C)C)c1C` is entered as 2%
FEN1 inhibitor, `Cc1ccc(C(=O)CSc2nnnn2C(C)C)c(C)c1` is entered as -6%

(further entries)
FEN1 inhibitor,N370S GC mod,compound
22%,x,O=C(COC(=O)c1ccc(Br)cc1)NC(=O)NCc1ccccc1
1%,23%,CCOC(=O)c1cc(CNC(=O)c2c(C)oc3c2CCCC3)c(C)o1
8%,-9%,N/C(=N\OC(=O)Cc1ccccc1)c1ccc(Br)cc1
14%,-20%,CC(C)c1ccc(NC(=O)CCN2C(=O)[C@@H]3Cc4ccccc4CN3C2=O)cc1
-18%,x,CC(=O)Nc1ccc(C(=O)CN2C(=O)NC3(CCOc4ccccc43)C2=O)c(F)c1 (centres undefined)
-6%,x,Cc1ccc(-c2c(C)sc3nc(CN4CCN(CC(=O)NC5CC5)CC4)[nH]c(=O)c23)cc1
9%,10%,Cc1nc(C)c(-c2ccc(SCC(=O)Nc3cccc(Cl)c3C)nn2)s1
6%,-4%,N#CCSc1nc(Nc2ccc3c(c2)OCO3)c2ccccc2n1
u,6%,CC1N(C)c2cc(NC(=O)c3ccco3)ccc2C1(C)C (centres undefined)
-14%,18%,O=C(NCCCc1ccccc1)C1CCN(S(=O)(=O)c2ccc(F)cc2)CC1
-2%,-1%,Cc1ccccc1C(=O)NC1CCN(C(=O)Nc2ccc(F)cc2)CC1
-2%,x,CC1CCN(C(=O)c2[nH]cnc2C(=O)NCc2ccc(CNC(=O)OC(C)(C)C)cc2)CC1
-4%,-20%,CCOC(=O)C1CCN(S(=O)(=O)c2cc(Cl)c(C)cc2OC)CC1
0%,-6%,O=C(c1ccccc1)C1CCN(C(=O)Nc2ccccc2)CC1
3%,1%,CC(C)=C1C2CCC1C(C(=O)Nc1cc(C)cc(C)c1)C2C(=O)O (centres undefined)
15%,1%,COC(=O)c1ccc(COC(=O)c2cccn2C)o1
4%,x,O=C(Nc1ccc2c(c1)N(C1CCCC1)C(=O)c1ccccc1S2)c1ccccc1F
7%,7%,COc1ccc(-c2cnc3c(c2)CCC3(C#N)C#N)cc1
1%,x,COC(=O)c1ccc(OCC2c3cc(OC)c(OC)cc3CCN2C(=O)C(C)C)cc1 (centres undefined)
-11%,x,COCCCNC(=O)c1ccc2c(c1)N=C(C)c1c(C)ccc(C)c1S2

(next part)
FEN1 inhibitor,N370S GC mod,compound
-4%,-6%,O=C(O)C1CCN(C(=O)COc2ccc(Br)cc2)CC1
1%,-17%,Cc1cc(Br)ccc1NC(=O)C1CCN(S(=O)(=O)c2cnc[nH]2)CC1
-1%,7%,Cc1cc(C(=O)NCC2CCCO2)sc1C (centres undefined)
0%,-13%,Cc1cccc(OCC(=O)NCCNC(=O)c2ccco2)c1
38%,-7%,CCO[C@@H]1OC(C(N)=O)=C[C@H](C2CCCCC2)[C@H]1CCCO
x,-1%,CCn1c2ccccc2c2cc(C3C(C#N)=C(N)OC4=C3C(=O)CC(C)(C)C4)ccc21 (centres undefined)
3%,4%,O=C(NCc1ccc2c(c1)OCO2)C1CC(c2ccc(Cl)c(Cl)c2)=NO1 (centres undefined)
-3%,4%,CCOC(=O)c1ccc(NC(=O)Nc2ccn(C)n2)cc1
0%,1%,CCC1CCCCN1S(=O)(=O)c1ccc(C(=O)Nc2nnc(C3=COCCO3)o2)cc1 (centres undefined)
-4%,-16%,CCOC(=O)NCc1ccc2c(c1)cc(C)n2C
3%,4%,CCS(=O)(=O)c1ccc2c(c1)N(S(C)(=O)=O)CC(C(=O)NCc1ccccc1OC)O2 (centres undefined)
-14%,21%,C=CCN(CC=C)S(=O)(=O)c1ccc(NC(=O)COc2ccccc2OC)cc1
